Bioassay records deposited in PubChem by Johns Hopkins Ion Channel Center.
KCNQ2 pot – KCNQ2 (rat) channel potentiation | O88943 | CHO-K1 KCNQ2, FluxOR thallium flux fluorescence; active compounds read high | B-score at 10 µM | hit rate 0.54% among 310,000 | AID 2239;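 active means fluorescence ratio B-score at least 3 SD of library B-scores, with initial fluorescence B-score within 3 SD, cut at about 5.3 in these data; same plate scores as AID 2156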;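 further: B-score of peak minus minimum over baseline fluorescence ratio after K+ and Tl+ stimulus; positive B-score means potentiation of KCNQ2 with more thallium influx and brighter signal; only the inactives scoring about 0 or higher are listed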
Target sequence (O88943 whole entry, looked up): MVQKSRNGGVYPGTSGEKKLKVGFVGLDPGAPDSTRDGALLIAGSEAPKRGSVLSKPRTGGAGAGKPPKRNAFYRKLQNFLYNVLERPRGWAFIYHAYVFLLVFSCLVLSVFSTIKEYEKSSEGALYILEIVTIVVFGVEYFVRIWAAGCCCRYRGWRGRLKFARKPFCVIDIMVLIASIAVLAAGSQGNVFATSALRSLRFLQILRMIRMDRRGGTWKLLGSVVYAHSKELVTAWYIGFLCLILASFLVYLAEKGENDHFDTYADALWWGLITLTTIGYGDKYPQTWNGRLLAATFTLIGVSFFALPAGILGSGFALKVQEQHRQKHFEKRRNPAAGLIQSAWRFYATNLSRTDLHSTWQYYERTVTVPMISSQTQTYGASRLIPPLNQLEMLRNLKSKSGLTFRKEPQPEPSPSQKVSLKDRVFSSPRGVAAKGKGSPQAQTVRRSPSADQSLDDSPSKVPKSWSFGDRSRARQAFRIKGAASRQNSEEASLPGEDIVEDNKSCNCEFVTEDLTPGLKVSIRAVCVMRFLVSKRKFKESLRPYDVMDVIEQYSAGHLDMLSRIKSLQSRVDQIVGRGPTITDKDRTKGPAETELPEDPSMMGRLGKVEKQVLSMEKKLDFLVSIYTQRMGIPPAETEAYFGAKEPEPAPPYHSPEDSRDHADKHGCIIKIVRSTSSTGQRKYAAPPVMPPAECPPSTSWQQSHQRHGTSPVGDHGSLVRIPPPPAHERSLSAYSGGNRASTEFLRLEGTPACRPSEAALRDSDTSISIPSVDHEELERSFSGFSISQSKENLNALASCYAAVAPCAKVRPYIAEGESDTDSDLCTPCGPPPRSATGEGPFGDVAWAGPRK
KCNQ2 pot baseline – recorded beside KCNQ2 pot, whose call it bears; B-score; compound at 10 µM; measured here: initial fluorescence intensity artifact check;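 brightness before thallium and not channel activity; 0 = typical well and far values either way flag optical interference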
Starred values were filed as active, the others as inactive. Some of the compounds tested; count on the stated rates, not on these rows.

Screening CC(C)(C)c1ccc(CNC(=O)C2CCCN2C(=O)Nc2ccccc2)cc1 (stereo not given) returned KCNQ2 pot 0.24 and KCNQ2 pot baseline -0.01.
Screening CN(Cc1ccccc1)C(=C(Cl)Cl)/C(=C1/NCCN1C)[N+](=O)[O-] returned KCNQ2 pot 0.28 and KCNQ2 pot baseline 0.16.
For CC(=O)OC1COC(n2c(O)c(N=NC(N)=S)c3ccccc32)C(OC(C)=O)C1OC(C)=O (stereo not given) the results were KCNQ2 pot 1.04 and KCNQ2 pot baseline -1.23.
NC(=O)Cc1nc2scc(-c3ccccc3)c2c(=O)[nH]1 was read as KCNQ2 pot 0.1 and KCNQ2 pot baseline -0.16.
`CC(=O)Nc1ccc(S(=O)(=O)N2CCCC2C(=O)Nc2ccc(F)cc2)cc1` (stereo not given) gave KCNQ2 pot 1.45 and KCNQ2 pot baseline 0.01.
`CCCn1c(SCC(=O)Nc2nnc(CC)s2)nnc1-c1ccncc1` gave KCNQ2 pot 0.14 and KCNQ2 pot baseline 1.4.
Screening CCOC(=O)Cn1ccc(NC(=O)COc2ccc(F)cc2)n1 returned KCNQ2 pot 0.04 and KCNQ2 pot baseline -1.95.
Screening O=S(=O)(c1cccc2cccnc12)N1CCN(Cc2ccc3c(c2)OCO3)CC1 returned KCNQ2 pot 0.69 and KCNQ2 pot baseline -0.61.
Screening COc1ccc(NC(=O)COC(=O)c2ccc(OCc3ccccc3Cl)c(OC)c2)c(OC)c1 returned KCNQ2 pot 0.57 and KCNQ2 pot baseline -0.06.
COC(=O)c1c(NC(=O)CSc2nnc(Cn3nnc4ccccc43)n2C)sc(C)c1C was read as KCNQ2 pot 1.81 and KCNQ2 pot baseline -0.94.

Reprinted at random: 7 records from the list.
COC(=O)c1c(NC(=O)CSc2nnc(Cn3nnc4ccccc43)n2C)sc(C)c1C was read as KCNQ2 pot 1.81 and KCNQ2 pot baseline -0.94.
`CCCn1c(SCC(=O)Nc2nnc(CC)s2)nnc1-c1ccncc1` gave KCNQ2 pot 0.14 and KCNQ2 pot baseline 1.4.
Screening CCOC(=O)Cn1ccc(NC(=O)COc2ccc(F)cc2)n1 returned KCNQ2 pot 0.04 and KCNQ2 pot baseline -1.95.
Screening O=S(=O)(c1cccc2cccnc12)N1CCN(Cc2ccc3c(c2)OCO3)CC1 returned KCNQ2 pot 0.69 and KCNQ2 pot baseline -0.61.
Screening COc1ccc(NC(=O)COC(=O)c2ccc(OCc3ccccc3Cl)c(OC)c2)c(OC)c1 returned KCNQ2 pot 0.57 and KCNQ2 pot baseline -0.06.
Screening CC(C)(C)c1ccc(CNC(=O)C2CCCN2C(=O)Nc2ccccc2)cc1 (stereo not given) returned KCNQ2 pot 0.24 and KCNQ2 pot baseline -0.01.
For CC(=O)OC1COC(n2c(O)c(N=NC(N)=S)c3ccccc32)C(OC(C)=O)C1OC(C)=O (stereo not given) the results were KCNQ2 pot 1.04 and KCNQ2 pot baseline -1.23.

Later entries.
`Cc1ccc(NC(=O)/C=C/C(=O)O)c(NC(=O)c2ccccc2)c1` gave KCNQ2 pot 0.21 and KCNQ2 pot baseline -0.01.
Screening CC(O)CSc1nc2c(c(=O)[nH]c(=O)n2C)n1CC(O)COc1ccccc1 (stereo not given) returned KCNQ2 pot 0.6 and KCNQ2 pot baseline -0.67.
`CCc1nnc(NC(=O)C2CCN(c3nccc(C)n3)CC2)s1` gave KCNQ2 pot 1.41 and KCNQ2 pot baseline 0.07.
For CC(C)c1cc(C(=O)O)n[nH]1 the results were KCNQ2 pot 0.02 and KCNQ2 pot baseline 0.4.
Screening Cc1cc2c(cc1C)C(c1ccsc1)CC(=O)N2 (stereo not given) returned KCNQ2 pot 0.03 and KCNQ2 pot baseline 0.08.
For COc1ccc(OCCCC(=O)Nc2cccc([N+](=O)[O-])c2)cc1 the results were KCNQ2 pot 0.15 and KCNQ2 pot baseline 0.94.
Screening Cc1ccc(C2=NO[C@@](CC(=O)O)(C(=O)Nc3ccc4c(c3)OCCO4)C2)cc1 returned KCNQ2 pot 0.68 and KCNQ2 pot baseline 1.37.
For O=C(CNC(=O)c1nc[nH]c1C(=O)N1CCc2ccccc2C1)OCc1ccccc1 the results were KCNQ2 pot -5.57.
`CCOc1ccc(N2C(=O)CC(Sc3nc(O)c(CC)c(=O)[nH]3)C2=O)cc1` (stereo not given) gave KCNQ2 pot 0.29 and KCNQ2 pot baseline -0.76.
For Cn1c(CCNC(=O)c2ccco2)nc2ccccc21 the results were KCNQ2 pot 0.32 and KCNQ2 pot baseline -1.61.

Molecules shown so far that contain an aryl methoxy group, in the order listed:
Screening COc1ccc(NC(=O)COC(=O)c2ccc(OCc3ccccc3Cl)c(OC)c2)c(OC)c1 returned KCNQ2 pot 0.57 and KCNQ2 pot baseline -0.06.
For COc1ccc(OCCCC(=O)Nc2cccc([N+](=O)[O-])c2)cc1 the results were KCNQ2 pot 0.15 and KCNQ2 pot baseline 0.94.

Carrying on.
`COc1ccc(NC(=O)C(NC(C)=O)C(=O)NCc2ccccc2OC)cc1` (stereo not given) gave KCNQ2 pot 0.84 and KCNQ2 pot baseline 1.57.
CC1(C)CC(=O)C2=C(C1)Nc1ccccc1NC2c1cccc(F)c1 (stereo not given) was read as KCNQ2 pot 1.73 and KCNQ2 pot baseline 0.
Screening CC(=O)Oc1ccc(C(=O)Nc2ccccc2C(=O)NCC(C)C)cc1 returned KCNQ2 pot 0.63 and KCNQ2 pot baseline 1.5.
Cc1cc(C)c(NC(=S)N(CCN(C)C)C(C)c2cccnc2)c(C)c1 (stereo not given) was read as KCNQ2 pot 1.27 and KCNQ2 pot baseline -0.85.
Screening Cc1ccc(NC(=O)NC2(C(=O)NCc3ccco3)CCCCC2)cc1 returned KCNQ2 pot 1.69 and KCNQ2 pot baseline 0.
For Cc1cccc2cc(C#N)c(SCC(=O)NCc3cccs3)nc12 the results were KCNQ2 pot 0.84 and KCNQ2 pot baseline -4.08.
`NCCc1c(C(=O)O)[nH]c2ccc([N+](=O)[O-])cc12` gave KCNQ2 pot 0.27 and KCNQ2 pot baseline -0.23.
C=CCSc1n[nH]c(-c2ccc(OCCCC)cc2)n1 was read as KCNQ2 pot 0.07 and KCNQ2 pot baseline -1.22.
`CN(C)S(=O)(=O)c1cccc(NC(=O)c2cccc(NS(=O)(=O)c3ccccc3)c2)c1` gave KCNQ2 pot 1 and KCNQ2 pot baseline -0.14.
For O=C(CCc1nnc(CCC2CCCCC2)o1)NCCc1cccnc1 the results were KCNQ2 pot 1.05 and KCNQ2 pot baseline 0.71.
COc1ccc(CCNC(=O)c2ccc(CNS(=O)(=O)c3cc(C)ccc3C)cc2)cc1OC was read as KCNQ2 pot 0.31 and KCNQ2 pot baseline 0.29.
For CCO[C@H]1OC(C(=O)Nc2ccccc2)=C[C@@H](c2coc3ccccc3c2=O)[C@@H]1CCCO the results were KCNQ2 pot 0.07 and KCNQ2 pot baseline -0.12.
For COc1cc2ccccc2cc1C(=O)NC(=S)Nc1cccc(C(=O)O)c1 the results were KCNQ2 pot 1.5 and KCNQ2 pot baseline -0.67.
`COCCCN1C(=O)N(c2ccccc2)C(=O)C1CC(=O)Nc1ccc(F)cc1` (stereo not given) gave KCNQ2 pot 0.99 and KCNQ2 pot baseline -0.16.
`COc1cc(OC)cc(C(=O)OCC(=O)Nc2ccc3[nH]c(=O)[nH]c3c2)c1` gave KCNQ2 pot 2.26 and KCNQ2 pot baseline 0.86.
For COCCCn1nnnc1SCC(=O)N1CCCC1 the results were KCNQ2 pot 0.08 and KCNQ2 pot baseline -0.44.
`S=C(Nc1cccnc1)NC1CC2CCC1C2` (stereo not given) gave KCNQ2 pot 0.26 and KCNQ2 pot baseline -0.01.
Screening CCOC(=O)c1c(C)n(C)c2ccc(OCC(O)CNCCc3ccccc3)cc12 (stereo not given) returned KCNQ2 pot 0.08 and KCNQ2 pot baseline 0.21.
Nc1c(C(=O)OCC(=O)Nc2ccc(Cl)cc2[N+](=O)[O-])[nH]c(=O)[nH]c1=O was read as KCNQ2 pot 0.73 and KCNQ2 pot baseline -1.06.
`Cc1ccc(/C([O-])=C(/C(=S)NCc2ccccc2)[n+]2ccccc2)cc1[N+](=O)[O-]` gave KCNQ2 pot 1.2 and KCNQ2 pot baseline -3.04.
COc1ccccc1CCn1c(N)cc(=O)[nH]c1=O was read as KCNQ2 pot 0.45 and KCNQ2 pot baseline -0.53.
`COC(=O)c1ccc(C)c(NC(=O)CCSc2ccc(C)cc2)c1` gave KCNQ2 pot 1.94 and KCNQ2 pot baseline 0.73.
Screening CCCC1(c2ccccc2)NC(=O)N(CC(=O)Nc2cc(S(=O)(=O)N3CCOCC3)ccc2Cl)C1=O (stereo not given) returned KCNQ2 pot 1.06 and KCNQ2 pot baseline 1.62.
For Cc1ccc2c(c1)COc1c3ccc(C(=O)NC(C)C)cc3nn1-2 the results were KCNQ2 pot 0.18 and KCNQ2 pot baseline 1.19.
Cc1ccccc1C(=O)NC1CCN(C(=O)N2CCOCC2)CC1 was read as KCNQ2 pot 0.02 and KCNQ2 pot baseline 0.66.
`COc1ccc(Oc2nc(OC)cc(OC)n2)cc1` gave KCNQ2 pot 0.06 and KCNQ2 pot baseline 2.77.
`CC(=O)Nc1cc(C(=O)N2CCCC2)ccc1Sc1ccc(C)cc1` gave KCNQ2 pot 0.68 and KCNQ2 pot baseline 2.06.
O=C(CN(c1cccc([N+](=O)[O-])c1)S(=O)(=O)c1ccccc1)NCc1ccccc1 was read as KCNQ2 pot 0.28 and KCNQ2 pot baseline -0.1.
`O=C1OC(c2ccc(Cl)cc2)=N/C1=C\C=C\c1ccco1` gave KCNQ2 pot 0.29 and KCNQ2 pot baseline -0.41.
For CCCCn1c(SCC(=O)NC(C)(C)C)nnc1-c1ccco1 the results were KCNQ2 pot 0.36 and KCNQ2 pot baseline 0.55.
For O=C1c2cccc3cccc(c23)N1CN1CCN(c2ccccn2)CC1 the results were KCNQ2 pot 1.27 and KCNQ2 pot baseline -0.01.
`Cc1cccc(S(=O)(=O)Nc2ccc3c(c2)OCCO3)c1` gave KCNQ2 pot 0.56 and KCNQ2 pot baseline -0.16.
Screening CCOc1ccc(NS(=O)(=O)c2ccc3c(c2)CCN3C(=O)CCC(=O)O)cc1 returned KCNQ2 pot 0.51 and KCNQ2 pot baseline -1.53.
`Cc1cc(Nc2ccc(Br)cc2)nc(-c2ccccc2O)n1` gave KCNQ2 pot 0.4 and KCNQ2 pot baseline 0.11.
`Cc1nn(-c2ccc(F)cc2)c(Cl)c1/C=C/C(=O)N1CCNC(=O)C1` gave KCNQ2 pot 0.26 and KCNQ2 pot baseline -0.08.
`COc1cccc(C(=O)N(C)CC(=O)Nc2ccc(F)c(F)c2F)c1` gave KCNQ2 pot 0.06 and KCNQ2 pot baseline 1.71.
Screening CCCCn1c(SCC(=O)NC2CC2)nc2ccccc2c1=O returned KCNQ2 pot 0.55 and KCNQ2 pot baseline 2.01.
Cc1ccc2nc(SCc3nc4ccccc4c(=O)[nH]3)[nH]c2c1 was read as KCNQ2 pot 0.91 and KCNQ2 pot baseline 0.72.
`Cn1c(N)c(C(=O)COC(=O)C2(c3cccc(F)c3)CCCC2)c(=O)n(C)c1=O` gave KCNQ2 pot 1.03 and KCNQ2 pot baseline 0.95.
Screening Cc1ccc2[nH]c(-c3ccccc3)c(CN3CCOCC3)c(=O)c2c1 returned KCNQ2 pot 0.08 and KCNQ2 pot baseline -0.34.
`COC(=O)c1c(C)nsc1NC(=O)Oc1ccccc1` gave KCNQ2 pot 0.26 and KCNQ2 pot baseline 1.18.
`CCNC(=S)N(CCc1c(C)[nH]c2ccc(C)cc12)Cc1cccnc1` gave KCNQ2 pot 2.33 and KCNQ2 pot baseline 1.05.
Screening CC(=O)c1ccc(S(=O)(=O)NC2CC(=O)N(c3ccc(Cl)cc3)C2)cc1 (stereo not given) returned KCNQ2 pot 0.18 and KCNQ2 pot baseline -0.48.
Cc1cc(C)cc(N/C(N)=N/c2nc(C)cc(C)n2)c1 was read as KCNQ2 pot 1.51 and KCNQ2 pot baseline -0.01.
CCCCn1c(N)c(-c2nc3ccccc3s2)c2c([N+](=O)[O-])nn(CC)c(=O)c21 was read as KCNQ2 pot 0.56 and KCNQ2 pot baseline 0.83.
`CC(/C=C/c1ccco1)=N\NC(=O)c1cc(C)[nH]n1` gave KCNQ2 pot 0.01 and KCNQ2 pot baseline -0.38.
`CN(Cc1ccon1)Cc1cn(C)nc1-c1ccc2c(c1)OCCO2` gave KCNQ2 pot 1.49 and KCNQ2 pot baseline -0.04.
For Cc1ccnc(N2CCCC(C(=O)Nc3cccc(C)c3C)C2)n1 (stereo not given) the results were KCNQ2 pot 0.82 and KCNQ2 pot baseline -0.81.
`O=C(CSCc1cccc(Cl)c1)N/N=C/c1ccc(OCC(=O)N2CCCCC2)cc1` gave KCNQ2 pot 0.99 and KCNQ2 pot baseline -0.44.
`CN(C)S(=O)(=O)c1ccc(NC=O)cc1` gave KCNQ2 pot 0.77 and KCNQ2 pot baseline 0.38.
CC(=O)Nc1nc(C)c(Oc2ccc(Cl)cc2Cl)c(=O)[nH]1 was read as KCNQ2 pot 1.65 and KCNQ2 pot baseline -0.68.
`CNC(=O)COC(=O)c1ccc(NC(=O)CC#N)cc1` gave KCNQ2 pot 0.49 and KCNQ2 pot baseline -0.51.
Screening CC1(C)CC(=O)C2=C(C1)N(Cc1ccco1)C(=O)C2(NC(=O)c1cccnc1)C(F)(F)F (stereo not given) returned KCNQ2 pot 1.1 and KCNQ2 pot baseline 1.35.
Screening Cc1ccc(N2C(=O)CC(Sc3ncccc3C(=O)O)C2=O)cc1 (stereo not given) returned KCNQ2 pot 0.73 and KCNQ2 pot baseline -0.95.
Screening O=C(c1ccc([N+](=O)[O-])cc1)N1CCC(n2nnc3cc(F)ccc32)CC1 returned KCNQ2 pot 2.74 and KCNQ2 pot baseline -0.15.
